PTAP TSG101 blk – blocks PTAP/TSG101 interaction to inhibit HIV-1 budding | Q99816 | Fluorescence polarization, FITC-PTAP peptide / Tsg101 binding | Potency, µM (top dose mostly 115 µM), for inactives: top-dose activity change, negative = inhibition, most hits filed as inhibitors | 340,000 tested, under 10 active; active = well fitted inhibition curve with a large enough effect in the main read-out, with a control signal flat, not every such curve was filed as active; inconclusive = small, poorly fitted or top-dose-only effect, or effect the other way, or a change in a side signal; inactive = no such curve, though single readings can be large or run the other way; also: potency is read from the fitted curve at half-maximal effect; % of control where 0% means no effect
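Compounds were pin-transferred onto Tsg101 binding domain (10 uM final) in HEPES pH 7.5 buffer, then FITC-PTAP peptide was added at 50 nM final. After 20 min at RT, polarization reported peptide displacement across a qHTS concentration series.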
ASM inhibitor – blocks human secretory acid sphingomyelinase; P17405; placental ASM, HMU-PC fluorogenic substrate, 60 min; Potency, µM (highest dose often 57.5 µM), for the others: top-dose activity change, negative = inhibition, hits mostly inhibitors; 340,000 compounds, 0.006% hits; AID 504937; also: potency is read from the fitted curve at half-maximal effect
Target sequence (P17405 47-631 limits assumed): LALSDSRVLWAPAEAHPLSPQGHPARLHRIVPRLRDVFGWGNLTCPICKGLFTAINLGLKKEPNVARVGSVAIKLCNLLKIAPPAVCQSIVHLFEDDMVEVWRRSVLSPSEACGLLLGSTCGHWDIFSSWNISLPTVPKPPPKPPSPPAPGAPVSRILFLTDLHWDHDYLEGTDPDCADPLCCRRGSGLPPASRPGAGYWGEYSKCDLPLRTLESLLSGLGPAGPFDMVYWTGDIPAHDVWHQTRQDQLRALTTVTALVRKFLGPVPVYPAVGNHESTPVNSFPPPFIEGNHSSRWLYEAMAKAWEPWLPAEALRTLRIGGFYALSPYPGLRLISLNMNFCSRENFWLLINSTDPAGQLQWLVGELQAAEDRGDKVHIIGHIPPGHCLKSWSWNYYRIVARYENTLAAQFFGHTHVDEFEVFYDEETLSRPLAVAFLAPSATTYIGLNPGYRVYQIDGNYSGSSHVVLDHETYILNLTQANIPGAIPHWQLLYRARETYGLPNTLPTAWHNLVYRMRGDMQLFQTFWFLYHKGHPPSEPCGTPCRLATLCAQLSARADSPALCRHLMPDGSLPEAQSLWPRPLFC
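Fluorogenic HMU-PC substrate (9 uM final) is turned over by placental ASM in 60 min at 37 C after a 10 min compound preincubation. Reaction ended by alkaline stop (pH 10), with fluorescence read at 386/447 nm.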
B2AR arrestin – beta2AR (human) beta-arrestin recruitment activity. P07550. beta-arrestin recruitment to beta2AR, cell-based reporter. Potency, µM (highest dose often 46.1 µM), inactives show at the highest dose activation, usual class: activators. 330,000 compounds, 0.02% hits. AID 492947;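 also: potency is read from the fitted curve at half-maximal effect; 0% = DMSO controls and full agonism = EC100 isoproterenol or metaproterenol; nearly all actives have a fitted effect of over 65% in size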
Giardia killer – kills Giardia lamblia. 340,000 compounds, 0.15% hits. activity change, % at 7.66 µM, hits read low. AID 540267. Giardia lamblia trophozoite viability; in the data active = activity change below about -80%; inconclusive = between about -30% and that limit;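 also: parasites exposed to compound for two days anaerobically before the ATP read; % is scaled to controls: 0 for no effect and ±100 for the full control effect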
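Anaerobic 48 hrs incubation at 37 deg C of 100 trophozoites/well with test compounds; ATPLite 1-Step luminescence, 15-30 min RT, reports cellular ATP as viability.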
Menin-MLL TR inh – inhibitors of human menin-MLL interaction, mutant MLL peptide; O00255; Menin + Texas Red MLL mutant peptide, fluorescence polarization; Potency, µM (series often up to 61.6 µM), inactives show at the highest dose FP activity change, negative = inhibition, most hits filed as inhibitors; 270,000 compounds, 0.23% hits; AID 1768; active = well fitted inhibition curve with a large enough effect in the polarisation, with a control signal flat, not every such curve was filed as active; inconclusive = small, poorly fitted or top-dose-only effect, or effect the other way, or a change in a side signal; inactive = no such curve, though single readings can be large or run the other way; the % refers to the polarisation; also: potency is read from the fitted curve at half-maximal effect; % of control where 0% means no effect; many of its hits are not listed in these tables
Integrin act MD – activators of alpha7 integrin expression for muscular dystrophy | alpha7betagal myoblasts, beta-gal FDG fluorescence, 48 h | Potency, µM (top dose mostly 38.3 µM), for inactives: at the highest dose activation, hits mostly activators | 350,000 compounds, 0.064% hits | AID 624291;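 also: potency is read from the fitted curve at half-maximal effect; 100% = response of the positive control SU9516; nearly all actives have a fitted effect of over 60% in size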
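alpha7betagal+/- myoblasts (passage 13, 250/well) treated 48 h at 37C with compounds at 1:260 dilution of DMSO stock. Lysed, then beta-galactosidase activity read as FDG fluorescence (ex 480/em 540) after 30 min, with pre-read for autofluorescence.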
BCR signal inh – inhibitors of chronic active B-cell receptor signaling. ABC-DLBCL IkBa-CBG/CBR reporter, luminescence ratio, 4 h. Potency, µM (highest dose often 46.1 µM), for inactives: top-dose ratio change, negative = lower green/red ratio, actives largely listed as inhibitors. 340,000 compounds, 0.05% hits. AID 493014; active = well fitted inhibition curve with a large enough effect in the signal ratio, with a control signal flat, not every such curve was filed as active; inconclusive = small, poorly fitted or top-dose-only effect, or effect the other way, or a change in a side signal; the % refers to the signal ratio;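 also: potency is read from the fitted curve at half-maximal effect; plate controls were basal doxycycline-induced cells for no effect and cells given 10 µM MG132 for full effect; MG132 reads +100%, hits lower the ratio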
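Concentration-response series (up to 46 uM) were applied to TMD8 dual-reporter cells for 4 h at 37C with doxycycline. Green/red ratio, after filter-overlap correction, defined %Activity; red signal alone was normalised to basal cells and zero luminescence.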
GALK inhibitor – inhibitors of human galactokinase; P51570; 270,000 compounds, 0.007% hits; Potency, µM (series often up to 57.5 µM), inactives show top-dose activity change, negative = inhibition, hits mostly inhibitors; Purified GALK, Kinase-Glo residual ATP luminescence; AID 1868; also: potency is read from the fitted curve at half-maximal effect; % is scaled to controls: 0 for no effect and ±100 for the full control effect
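Galactose (100 uM) and ATP (35 uM) were turned over by 5 nM GALK for 1 h at RT. Kinase-Glo Plus then converted the remaining ATP into a luminescent signal.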
Tb PFK block – blocks T. brucei phosphofructokinase; T. brucei PFK, ADP-Glo luminescence; Potency, µM (doses to about 57.5 µM), inactives show at the top dose activity, negative = inhibition, hits mostly inhibitors; 330,000 compounds, 0.17% hits;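 also: potency is read from the fitted curve at half-maximal effect; 0% = uninhibited 1x PFK enzyme wells and -100% = no-enzyme wells; nearly all actives have a fitted effect of over 60% in size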
Target sequence (O15648 whole entry, looked up): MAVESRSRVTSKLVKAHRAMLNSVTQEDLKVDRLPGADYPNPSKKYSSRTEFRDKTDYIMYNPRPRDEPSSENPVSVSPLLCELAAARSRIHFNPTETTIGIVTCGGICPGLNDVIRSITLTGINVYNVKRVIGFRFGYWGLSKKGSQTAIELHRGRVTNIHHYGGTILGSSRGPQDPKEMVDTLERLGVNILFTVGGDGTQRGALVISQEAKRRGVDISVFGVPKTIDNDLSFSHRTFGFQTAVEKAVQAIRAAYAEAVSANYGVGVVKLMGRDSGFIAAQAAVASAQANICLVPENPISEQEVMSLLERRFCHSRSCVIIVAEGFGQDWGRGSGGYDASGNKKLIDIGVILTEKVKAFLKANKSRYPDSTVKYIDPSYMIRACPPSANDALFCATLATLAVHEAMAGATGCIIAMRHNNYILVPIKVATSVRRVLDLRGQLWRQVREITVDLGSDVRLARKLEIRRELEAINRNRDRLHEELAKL
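Compounds were pin-transferred as a titration series up to 57 uM into substrate buffer (0.5 mM F6P, 0.1 mM ATP, pH 8.0), then 1.25 nM PFK was added and reactions ran 45 min before ADP-Glo detection.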
FBPA coupling cs – inhibits coupling enzyme system, counter-screen for aldolase hits; coupling enzyme system counterscreen, AmpLite Red fluorescence; activity change, negative = inhibition, % at 58.2 µM, hits read low; 290,000 compounds, 0.67% hits; in the data active = activity change below about -30%; also: % is scaled to controls: 0 for no effect and ±100 for the full control effect
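Activity here indicates interference with the coupling reaction, not aldolase inhibition. Compounds at 57.5 uM final met coupling enzymes for 10 min at RT; substrate and AmpLite Red detection followed, with a 525/598 nm fluorescence read after 20 min.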
* hit, by the source's call; ? = inconclusive; · = not tested or not shown; [ ] = remark or other dose. Unless noted, calls follow the shape of the dose curve; as a rule, active = well fitted curve in the direction sought with a large enough effect; inconclusive = small, poorly fitted or top-dose-only effect, or another doubt; inactive = no such curve, though single readings can be large; an effect the other way counts as inactive or inconclusive. Not all compounds are listed, so the mix of outcomes need not match the whole.

SMILES	PTAP TSG101 blk	ASM inhibitor	B2AR arrestin	Giardia killer	Menin-MLL TR inh	Integrin act MD	BCR signal inh	GALK inhibitor	Tb PFK block	FBPA coupling cs
CCc1ccc(OCC(=O)OCC(=O)c2c(N)n(C)c(=O)n(C)c2=O)cc1	-0.1%	-10.2%	0.2%	-1.8	6.2%	1.4%	7.3%	-0.1%	0.0%	2.1
CSCCC(NS(=O)(=O)c1ccc(Cl)cc1)C(=O)OCc1cccc(Cl)c1 (stereo not drawn)	-1.5%	-0.4%	-0.8%	5.5	0.7%	-15.6%	-1.6%	2.7%	1.0%	0.1
CCN(Cc1ccccc1)S(=O)(=O)c1ccc(C(=O)N(CCCN(C)C)c2nc3ccc(F)cc3s2)cc1	-5.4%	-11.0%	-0.4%	-10.2	·	-70.3%[inhibitor]	2.4%	4.8%	1.4%	·
CN(c1cccc(NS(=O)(=O)c2ccccc2)c1)S(C)(=O)=O	-1.3%	2.0%	-0.4%	3.6	-13.3%	34.8%	-8.4%	-0.8%	1.3%	-11.3
CC(=O)Nc1cccc(NC(=S)Nc2cccc(Cl)c2Cl)c1	-1.6%	0.2%	-0.3%	17.8	9.2%	0.0%	2.7%	-1.6%	-11.3%	-0.5
NC1=NC(=O)S/C1=C\c1ccc(F)cc1	-1.2%	2.6%	0.1%	21.1	-0.8%	-17.8%	?	0.0%	-3.4%	0.3
Clc1ccc(OCCOCCN2CCc3ccccc3C2)c(Cl)c1	-1.8%	-0.9%	0.2%	14.8	5.1%	6.6%	?	-1.8%	-6.0%	0.3
Clc1nc2c(-c3ccccc3)nnn2c2ccccc12	-2.2%	50.4%	-0.1%	7.9	·	-32.7%	?	·	16.5%	-8.8
CCNC(=O)NC(=O)C(C)OC(=O)c1cccn1C (stereo not drawn)	-0.6%	5.2%	0.1%	-1.1	-8.9%	12.5%	0.8%	5.4%	-3.1%	-0.1
COc1cccc(CN2CCN(S(=O)(=O)c3ccc(Br)cc3)CC2)c1	-4.5%	1.3%	0.2%	4.6	·	-20.2%	2.4%	-1.9%	0.5%	0.4
Cc1ccccc1CN(C)Cc1cc(=O)oc2c(C)c(C)ccc12	-0.6%	-4.0%	-0.6%	2.4	-10.6%	-19.4%	?	5.2%	-19.8%	0.5
O=C(Nc1cccnc1)c1ccc(N2CCOCC2)c([N+](=O)[O-])c1	-6.8%	-0.2%	0.4%	-4.5	15.8%	1.8%	1.1%	-0.8%	0.9%	-2.4
Cc1ccc(NC(=O)Nc2ccc3c(c2)OCO3)cc1F	1.9%	-0.3%	-0.5%	-16.3	-2.5%	31.3%	?	-2.9%	4.3%	-0.2
CCN(CC)C(=O)C1CCCN(C/C=C/c2ccccc2[N+](=O)[O-])C1 (stereo not drawn)	-1.8%	-1.7%	-0.3%	-16.4	-6.6%	-10.6%	-12.4%	-0.3%	2.3%	0.4
NC(=O)COC(=O)c1ccccc1OCc1ccccc1Cl	-3.5%	-3.3%	0.1%	-12.5	-20.4%	?	-5.2%	9.0%	-1.3%	-1.1
Cc1cccc(-c2noc(CNC(=O)c3ccc4c(c3)OCO4)n2)c1	-0.3%	-3.8%	-0.5%	-6.5	13.4%	5.7%	-3.2%	16.5%	3.2%	5.0
COC(=O)c1ccc(Oc2coc3cc(OCc4ccc([N+](=O)[O-])cc4)ccc3c2=O)cc1	1.4%	4.0%	-0.4%	12.7	?	15.0%	-0.3%	0.6%	0.0%	0.3
COCCn1c(SCc2ccc(OC)c(F)c2)nnc1-c1ccncc1	-0.3%	9.5%	0.5%	-20.7	8.4%	-25.1%	0.4%	-0.9%	-0.3%	-0.1
CCN1C(=O)C2(C(C#N)=C(N)Oc3n[nH]c(-c4ccc(Cl)cc4)c32)c2ccccc21 (stereo not drawn)	-9.3%	-7.1%	0.4%	-1.0	-10.1%	-21.9%	1.4%	-3.0%	-8.3%	-2.1
CN(C)c1nc(/C=C(\C#N)C(N)=O)c(Cl)n1-c1ccc(F)cc1	0.2%	-4.1%	-0.1%	14.8	-23.0%	-43.2%[inhibitor]	-0.7%	-1.7%	-1.7%	4.8
COc1ccc(NC(=O)c2oc3ccccc3c2NC(=O)C2CCCO2)cc1OC (stereo not drawn)	-3.8%	-3.6%	-0.3%	29.1	12.1%	21.1%	19.2%	1.0%	-3.7%	0.7
C/C(=N\Nc1ccc(Cl)c(Cl)c1)c1ccc(-n2ccnc2)cc1	0.0%	-19.0%	-0.1%	-16.2	?	5.5%	?	-0.1%	-1.9%	0.5
COC(=O)c1cc2c(cc1[N+](=O)[O-])OCO2	-8.0%	4.9%	0.4%	4.0	-1.9%	?	8.9%	-1.3%	-2.8%	-0.3
Cc1ccccc1NC(=O)NCCCCc1ccccc1	-4.4%	-12.0%	0.4%	2.4	-2.2%	-7.1%	?	-4.8%	-1.3%	-2.6
COc1ccccc1NC(=O)CSc1c2c(nc3ccccc13)CCC2	-2.1%	-2.4%	-0.5%	-17.4	-1.4%	-9.7%	?	0.8%	-4.2%	-3.9
COCCn1c(SCC(=O)Nc2cc(C)cc(C)c2)nc2ccccc2c1=O	-3.4%	-2.2%	11.2%	1.9	-26.6%	-7.7%	6.0%	-4.3%	3.1%	0.8
Cc1nn(C)cc1C(=O)NNC(=S)Nc1ccccc1	-6.3%	2.5%	0.6%	-8.2	-6.2%	4.7%	?	·	3.6%	-0.1
CCCNC(=O)COC(=O)c1ccc(N2CCCC2)c([N+](=O)[O-])c1	-0.9%	-0.7%	0.6%	13.4	0.9%	0.0%	0.1%	0.1%	-1.9%	-2.2
O=C(NNC(=O)c1cccs1)c1cccc(F)c1	-2.2%	-24.5%	-0.1%	12.5	0.4%	?	?	0.4%	-0.6%	1.5
CC(C)CCN1CCN(CCCn2cccn2)CC1CCO (stereo not drawn)	-9.6%	-6.4%	-1.2%	-4.2	-3.9%	-22.4%	·	2.5%	-1.2%	7.1
CCN(CC)C(=O)C1CCCN(C(=O)c2cc(COc3cccc(OC)c3)on2)C1 (stereo not drawn)	-1.2%	4.3%	-0.1%	-6.0	·	23.7%	0.5%	-5.8%	-1.3%	·
C/C(=N\NC(=O)CSc1nc(C)[nH]c1[N+](=O)[O-])c1ccc(F)cc1	1.4%	-1.4%	-0.3%	1.6	·	21.7%	1.2%	0.9%	0.0%	-1.7
CN(C)CCCNc1ccc(S(N)(=O)=O)cc1[N+](=O)[O-]	0.9%	-2.2%	0.4%	-3.3	-1.0%	6.1%	-1.5%	-1.9%	0.6%	-1.1
CSc1nc2sc3c(c2c(=O)[nH]1)CC(C)(C)OC3	-1.0%	-2.5%	0.2%	5.7	7.6%	17.7%	-3.1%	-0.8%	0.5%	0.1
COc1ccc(C(=O)CC(=O)c2ccccc2O)cc1OC	-1.0%	-2.0%	-0.5%	-9.2	?	23.2%	?	8.2%	0.1%	-1.6
Cc1cccc(NC(=S)N2CCC(NC(=O)C3CCCCC3)CC2)c1	3.9%	0.4%	0.2%	-8.5	8.8%	-6.3%	7.2%	-1.5%	2.0%	2.0
COCC1CCN(C(=O)C2CCC(=O)N(CCc3ccc(Cl)cc3)C2)CC1 (stereo not drawn)	-3.6%	3.2%	0.5%	-13.6	-1.1%	?	8.5%	-0.6%	17.1%	1.6
O=C(O)CSc1ccnc2cc(Cl)ccc12	-4.6%	7.3%	-1.0%	1.4	·	-22.0%	1.0%	-1.0%	6.9%	6.0
CCn1c(SCC(N)=O)nnc1-c1ccc2c(c1)OCO2	-3.7%	1.7%	0.3%	-7.7	7.5%	3.7%	4.2%	-0.6%	-4.2%	-0.7
CN(Cc1ccccc1)C(=O)c1ccc(NC(=O)c2ccccc2)cc1	·	-2.2%	0.0%	-24.0	·	-18.2%	?	-4.5%	0.5%	·
CCN1/C(=C\c2ccc3ccccc3[n+]2CC)Sc2cc(C)ccc21	22.4%	?	0.1%	?	?	-74.1%	?	5.4%	-7.5%	7.5
Cc1cccc(C)c1NC(=O)CCCCCNS(=O)(=O)c1ccccc1	-1.5%	0.6%	-0.2%	-3.1	-5.0%	6.6%	1.5%	1.8%	4.4%	-2.0
O=C(COC(=O)c1cc(S(=O)(=O)N2CCOCC2)ccc1F)c1ccc[nH]1	0.1%	1.1%	-0.2%	-12.0	-4.2%	8.4%	?	1.8%	2.4%	3.1
COc1ccccc1C(=O)N1CCN(Cc2nc(CC3CC3)no2)CC1	-1.8%	0.6%	-0.9%	-9.8	17.6%	18.4%	5.2%	9.8%	-0.9%	3.2
CCOc1ccc2nc(C(=O)N3CCCC(C)C3)sc2c1 (stereo not drawn)	0.1%	0.7%	0.0%	0.3	-8.0%	3.3%	-0.9%	0.7%	-0.9%	-7.1
CC(C)N1CCN(Cc2ccc(Oc3ncccn3)cc2)CC1CCO (stereo not drawn)	-4.5%	3.4%	0.1%	9.0	-1.0%	1.7%	1.0%	-0.6%	0.7%	-1.2
CC1CC(=O)c2cnc(N3CCOCC3)nc2C1 (stereo not drawn)	1.9%	1.4%	0.2%	-8.4	1.0%	-2.0%[7.66 µM]	-3.7%	1.5%	0.3%	3.4
Cc1cc(=O)[nH]c(SCC(=O)NCc2ccc3c(c2)OCO3)n1	-1.9%	6.2%	-0.3%	14.5	-2.4%	2.2%	3.3%	-1.1%	0.0%	6.0
CCCCCCCc1nn2c(=O)cc(O)nc2s1	-0.2%	0.0%	-0.4%	-7.3	-1.2%	5.7%	7.0%	·	-13.6%	13.8
COc1ccc(NC(=S)N2CCN(S(=O)(=O)c3ccccc3)CC2)cc1	-1.7%	-2.3%	-0.2%	7.1	·	?	0.3%	-4.9%	1.6%	·
